# GLA inh pH 4.5 = alpha-galactosidase A (human) inhibition, pH 4.5; P06280; purified enzyme, 4-MU-alpha-Gal fluorescence, pH 4.5; activity change, negative = inhibition, % at 105 µM; 230,000 tested, under 10 active; AID 1467; inconclusive = small, poorly fitted or top-dose-only inhibition, or a rising curve; inactive = flat fitted curve, though single readings scatter; no compound was filed as active;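 note: 0% = full activity with enzyme and -100% = basal without enzyme; dose as in the result columns while the protocol names 77 µM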
# Target sequence (P06280 whole entry, looked up): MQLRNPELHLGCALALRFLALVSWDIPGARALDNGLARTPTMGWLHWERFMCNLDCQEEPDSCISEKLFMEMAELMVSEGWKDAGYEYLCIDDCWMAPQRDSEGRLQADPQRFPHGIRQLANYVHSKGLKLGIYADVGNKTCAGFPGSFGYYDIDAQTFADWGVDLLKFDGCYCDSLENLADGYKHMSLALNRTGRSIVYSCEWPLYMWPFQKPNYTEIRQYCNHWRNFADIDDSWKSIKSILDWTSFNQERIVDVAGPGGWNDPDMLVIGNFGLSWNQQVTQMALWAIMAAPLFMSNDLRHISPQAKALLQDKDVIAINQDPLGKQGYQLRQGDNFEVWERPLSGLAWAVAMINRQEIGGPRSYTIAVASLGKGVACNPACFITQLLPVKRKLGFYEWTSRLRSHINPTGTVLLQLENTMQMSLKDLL
# Rango release inh = inhibition of RanGTP-driven Rango-importin beta dissociation; O95149+P62826; Biochemical FRET Rango-importin beta, RanGTP-induced dissociation; Potency, µM (series often up to 46.1 µM), without a hit: at the highest dose activity change, negative = inhibition; 0.071% of 340,000 active; AID 540253; active means falling FRET ratio curve, often poorly fitted, with flat reads before Ran was added; inconclusive means other falling curves, or compound fluorescence or quenching; inactive means flat or rising ratio curve;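 note: potency is the fitted concentration of half-maximal effect; % of control where 0% means no effect; nearly all actives have a fitted effect of over 45% in size; -100% = wells without RanGTP and RCC1; the record marks most hits as doubtful in a second field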
#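 Rango (0.1 uM)–importin beta (0.25 uM) complex; RanGTP-RCC1 trigger; 45 min RT; CFP/YFP FRET read.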
# miR-21 FLuc = raises the signal of a miR-21 reporter | HeLa miR-21 FLuc reporter, luciferase, 48 h | Potency, µM (doses to about 38.3 µM), for the others: at the highest dose reporter change, positive = more light | 340,000 tested, under 10 active | AID 2288; active = well fitted rising curve with a large enough effect; inconclusive = small, poorly fitted or top-dose-only effect; inactive = no such curve, though single readings can be large or run the other way;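 note: % of control where 0% means no effect; miR-21 action dims this reporter so a rising signal means less miR-21 action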
#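 Compounds were titrated across several concentrations (up to approximately 40 uM) and incubated 48 hours with HeLa miR-21-FLuc reporter cells (miR-21 target sequence downstream of FLuc, endogenous miR-21). Readout was firefly luciferase luminescence after lytic detection reagent.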
# Rango-impB inh = Rango-importin beta binding inhibition; Rango CFP/YFP FRET sensor + importin beta, 45 min; Potency, µM (doses to about 92.2 µM), for the others: at the highest dose inhibition of complex formation; 0.031% of 340,000 active; AID 540263; Q14974; active = rising FRET ratio curve, often small or poorly fitted; inconclusive = mostly compound fluorescence or quenching in the first reads; inactive = flat curves in all reads;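 note: potency is the fitted concentration of half-maximal effect; 0% = DMSO wells and 100% = buffer wells lacking importin beta; nearly all actives have a fitted effect of over 15% in size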
#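 FRET biosensor (snurportin 1 IBB flanked by EYFP and cerulean), 50 nM, with compound 5 min, then 0.125 microM importin beta in PBS, 1 mM DTT, 0.02% Tween-20, 0.1% BSA. CFP/YFP ratio read after 45 min at room temperature; pre-read flags interference.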
# * marks the source's active call; other numbers are inactive results; ? = inconclusive; · = not tested or not shown; & = joins results of further samples. Only part of the results is shown, so the mix of outcomes need not match the whole.
SMILES,GLA inh pH 4.5,Rango release inh,miR-21 FLuc,Rango-impB inh
CCc1nc(N2CCCCC2C)c2oc3ccccc3c2n1 (centres undefined),3,9%,20%,3.8%
CCCC(=O)NC(Nc1ccc(S(=O)(=O)Nc2ncccn2)cc1)(C(=O)OCC)C(F)(F)F (centres undefined),7,1%,-3%,0.2%
Cc1cccc(NC(=O)COc2coc(CN3CCN(Cc4ccccc4)CC3)cc2=O)c1,·,-3%,·,-1.1%
c1csc(-c2nn3c(C4COc5ccccc5O4)nnc3s2)c1 (centres undefined),-1,1%,-67%,0.0%
O=C(Nc1ccc(OC(F)(F)F)cc1)NC1CCC(Oc2ccc(C(=O)O)cc2)CC1 (centres undefined),·,10%,·,?
O=C(CSc1nncs1)Nc1cccc2ccccc12,·,12%,·,-0.8%
COc1ccc(-n2c(=S)[nH]c3cc(C(=O)Nc4cccc(C)c4)ccc3c2=O)cc1,0,2%,-3%,0.1%
COc1cccc(-n2nnnc2SCC(=O)Nc2ccccc2OC)c1,·,20%,-4%,1.7%
CCN(CC(=O)NCc1ccc(Cl)cc1)CC(=O)NC1(C#N)CCCC1,·,0%,0%,2.2%
CCOC(=O)c1nc(Nc2ccccc2C)c2ccccc2n1,4,0%,-9%&-3%,1.1%
Cn1c(NN)nc2sc3c(c2c1=O)CC(C)(C)OC3,1,15%,-2%,?
CCOC(=O)N=S(N)(=O)c1ccccc1 (centres undefined),11,0%,-4%,-3.9%
CCN(C(=O)COC(=O)c1cccnc1SC)c1c(N)n(Cc2ccccc2)c(=O)[nH]c1=O,·,14%,·,0.3%
O=c1[nH]c2c(c(=O)[nH]1)OCN(Cc1ccccc1)C2,·,18%,·,-0.3%
O=C(NC1CC1)C1CCN(S(=O)(=O)c2ccc(Cl)cc2)CC1,·,-4%,0%,-2.2%
CC1Sc2ccc(S(=O)(=O)CCC(=O)N3CCCCC3)cc2NC1=O (centres undefined),·,-8%,3%,-3.9%
CCSc1nc2ccccc2n1C(=O)c1ccc(S(=O)(=O)N2CCCCCC2)cc1,-1,-4%,-12%,0.2%
COc1cccc(CNC(=O)C2CCN(c3nnc(N4CCCC4=O)s3)CC2)c1,·,-7%,-6%,-3.1%
CC(C)[C@H](NC(=O)c1ccccc1F)C(=O)NNC(=O)c1cccs1,·,13%,·,-4.6%
C=CC(=O)NC1CC2CCC1(C)C2(C)C (centres undefined),-13,-1%,-2%,-1.0%
CC(=O)N1N=C(c2ccccc2O)CC1c1cccs1 (centres undefined),·,4%,-16%,0.4%
O=C(CN(Cc1ccccc1)S(=O)(=O)c1ccc2c(c1)OCCO2)Nc1ccc2c(c1)OCCO2,1,4%,-27%,-0.2%
COc1ccccc1CNC(=O)C1CCN(S(=O)(=O)c2ccc(-n3cnnn3)cc2)CC1,·,-12%,5%,-4.3%
Cc1ccsc1C(=O)Nc1n[nH]c(C(F)(F)F)n1,-14,0%,-1%,-1.2%
CCSc1nnc(NC(=O)C2CCCCC2C(=O)OCC(F)(F)C(F)F)s1 (centres undefined),7,4%,-11%,-0.5%
COc1cc(CN2CCCC(N3CCc4ccccc4C3)C2)c(Cl)cc1O (centres undefined),·,0%,0%,-3.3%
CCCC(=O)Nc1ccc2c(c1)nc(CN1CCCCC1)n2C,-7,1%,-9%,-2.4%
Cc1cccn2c(=O)c3cc(C(=O)NC4CCCCCC4)sc3nc12,·,-18%,-13%,?
COc1ccc(CCN2C(=O)CS/C2=N\NC(=O)c2cccs2)cc1OC,-2,-10%,2%,5.8%
CCOC(=O)C1CCN(C(=O)CNC(=O)c2nn(-c3ccc(OC)cc3)c(=O)c3ccccc23)CC1,·,-8%,4%,3.2%
Cc1ccccc1OCC(=O)NCC(=O)N/N=C/c1ccc(Br)o1,3,-1%,-13%,0.0%
CC(NC(=O)C1CCC1)c1ccc(Br)cc1 (centres undefined),-2,-2%,2%,1.0%
O=C(Nc1ccc(C(=O)N2CCCC2)cc1)C1CCCC1,·,3%,·,-0.8%
CCCC(=O)Nc1ccc(Oc2ccc(NC(=O)CCC)cc2)cc1,11,-5%,-13%,-0.9%
O=c1c2cn(Cc3ccc(F)cc3)c3ccc(F)cc3c-2nn1Cc1ccc(F)cc1,·,-8%,0%,1.4%
Cc1ccccc1Oc1nc2c(C)cccn2c(=O)c1/C=C(\C#N)C(=O)Nc1c(C)n(C)n(-c2ccccc2)c1=O,-7,-11%,0%,-2.6%

# 18 successive entries out of the list so far, quoted:
SMILES,GLA inh pH 4.5,Rango release inh,miR-21 FLuc,Rango-impB inh
CC(C)[C@H](NC(=O)c1ccccc1F)C(=O)NNC(=O)c1cccs1,·,13%,·,-4.6%
C=CC(=O)NC1CC2CCC1(C)C2(C)C (centres undefined),-13,-1%,-2%,-1.0%
CC(=O)N1N=C(c2ccccc2O)CC1c1cccs1 (centres undefined),·,4%,-16%,0.4%
O=C(CN(Cc1ccccc1)S(=O)(=O)c1ccc2c(c1)OCCO2)Nc1ccc2c(c1)OCCO2,1,4%,-27%,-0.2%
COc1ccccc1CNC(=O)C1CCN(S(=O)(=O)c2ccc(-n3cnnn3)cc2)CC1,·,-12%,5%,-4.3%
Cc1ccsc1C(=O)Nc1n[nH]c(C(F)(F)F)n1,-14,0%,-1%,-1.2%
CCSc1nnc(NC(=O)C2CCCCC2C(=O)OCC(F)(F)C(F)F)s1 (centres undefined),7,4%,-11%,-0.5%
COc1cc(CN2CCCC(N3CCc4ccccc4C3)C2)c(Cl)cc1O (centres undefined),·,0%,0%,-3.3%
CCCC(=O)Nc1ccc2c(c1)nc(CN1CCCCC1)n2C,-7,1%,-9%,-2.4%
Cc1cccn2c(=O)c3cc(C(=O)NC4CCCCCC4)sc3nc12,·,-18%,-13%,?
COc1ccc(CCN2C(=O)CS/C2=N\NC(=O)c2cccs2)cc1OC,-2,-10%,2%,5.8%
CCOC(=O)C1CCN(C(=O)CNC(=O)c2nn(-c3ccc(OC)cc3)c(=O)c3ccccc23)CC1,·,-8%,4%,3.2%
Cc1ccccc1OCC(=O)NCC(=O)N/N=C/c1ccc(Br)o1,3,-1%,-13%,0.0%
CC(NC(=O)C1CCC1)c1ccc(Br)cc1 (centres undefined),-2,-2%,2%,1.0%
O=C(Nc1ccc(C(=O)N2CCCC2)cc1)C1CCCC1,·,3%,·,-0.8%
CCCC(=O)Nc1ccc(Oc2ccc(NC(=O)CCC)cc2)cc1,11,-5%,-13%,-0.9%
O=c1c2cn(Cc3ccc(F)cc3)c3ccc(F)cc3c-2nn1Cc1ccc(F)cc1,·,-8%,0%,1.4%
Cc1ccccc1Oc1nc2c(C)cccn2c(=O)c1/C=C(\C#N)C(=O)Nc1c(C)n(C)n(-c2ccccc2)c1=O,-7,-11%,0%,-2.6%

# Following part:
SMILES,GLA inh pH 4.5,Rango release inh,miR-21 FLuc,Rango-impB inh
CCOC(=O)C1(CCc2ccccc2)CCN(C(=O)CN2C(=O)CSC2=O)CC1,1,?,-2%,3.6%
Cc1cc(SCC(=O)Nc2c(C)n(C)n(-c3ccccc3)c2=O)nc2ccccc12,·,-4%,0%,0.3%
O=C(O)c1c(C(=O)O)c(-c2ccc(Br)cc2)n2c1CSC2,·,2%,-3%,-2.0%
COc1ccc(NC(=O)c2ccc(NC(=O)CSc3nc(N)cc(=O)[nH]3)cc2)cc1,·,0%,·,0.0%
CCc1ccccc1OCC(=O)Nc1cc(S(=O)(=O)N(CC)CC)ccc1N1CCOCC1,·,-1%,·,1.1%
O=c1cc(CSc2nc3ccccc3c(=O)[nH]2)c2ccc(O)cc2o1,-3,?,6%,?
COc1ccc(C2COC(=O)C2=N)c(NC(=O)c2ccc(Cl)cc2)c1 (centres undefined),7,7%,1%,-6.2%
COc1cccc(CNC(=O)CCC2CCCN(C(=O)c3ccc(OC)o3)C2)c1 (centres undefined),1,-1%,-28%,-0.3%
O=C(Nc1ccc(F)cc1)c1nsc(Cl)c1Cl,3,-13%,-63%,2.3%
COC(=O)c1ccc(NC(=O)CSc2nnnn2C2CCCCC2)cc1,7,0%,2%,0.0%
O=C(O)CCN1/C(=C/C=Nc2ccccc2)Oc2ccccc21,-10,-4%,0%,0.4%
CCCN(CC1CCCO1)C(=O)CCc1nnc(-c2cc(C)on2)o1 (centres undefined),4,-6%,-22%,-1.8%
Cc1ccc(C)c(N2CCN(S(=O)(=O)c3cc4c(cc3C)NC(=O)CO4)CC2)c1,·,-15%,1%,0.0%
CCN(C(=O)COC(=O)c1cncc(Br)c1)C1CCS(=O)(=O)C1 (centres undefined),-11,1%,0%,0.1%
CCc1ccc2[nH]c(=O)c(CN(Cc3ccc4c(c3)OCO4)Cc3nnnn3C3CCCC3)cc2c1,-13,0%,12%,5.6%
Cc1nn(CC(=O)Nc2ccncc2)c(C)c1[N+](=O)[O-],-1,-4%,-2%,-0.6%
CC(C)c1ccc(NC(=O)NN2CCOCC2)cc1,5,25%,-41%,0.5%
C=CCNc1nc(NCCN2CCOCC2)nc(N2CCOCC2)n1,-11,0%,-5%,-2.6%
O=C(Nc1ccccc1)C1CCCN1C(=O)NCc1ccccc1 (centres undefined),1,1%,-2%,1.2%
COc1ccc(N2CCN(c3ncnc4scc(-c5ccc(C)cc5)c34)CC2)cc1,·,-3%,3%,0.1%
O=C1N(CCCCN2C(=O)C3(OCCO3)c3ccccc32)c2ccccc2C12OCCO2,2,25%,-6%,-2.4%
O=S(=O)(/C=C/c1ccccc1)n1cnc2ccccc21,9,8%,0%,2.5%
NC(=O)C1CCN(CC(=O)Nc2cccc(C(=O)Nc3cccc(C(F)(F)F)c3)c2)CC1,4,4%,-2%,7.5%
COc1ccc(CC(=O)Nc2cccc3ccccc23)cc1OC,·,-9%,10%,-1.9%
COc1ccc(C(=O)COc2nc(C)cc(C)c2C#N)cc1,5,12%,-24%,-7.0%
COc1ccc(NC(=S)Nc2ccc3nccnc3c2)cc1,-3,?,-40%,?
COc1ccc(N2CCN(C(=O)c3cn(C)c(=O)c4c3c3ccccc3n4C)CC2)cc1,0,6%,1%,-1.5%
COc1cc(NC(=O)c2ccc3c(SCC(=O)O)c4c(nc3c2)CCC4)cc(OC)c1OC,·,-10%,2%,-0.7%
CCCc1[nH]n(-c2nc3ccccc3s2)c(=O)c1C=NCCCOC,-11,15%,-29%,3.6%
O=C(O)CCN1C(=O)C2C3c4ccccc4C(c4ccccc43)C2C1=O (centres undefined),-1,2%,-5%,0.3%
O=C(O)c1cc(NS(=O)(=O)c2ccc(N3CCCCC3)c([N+](=O)[O-])c2)cc(C(=O)O)c1,-2,-1%,-8%,0.3%
CC(=O)Nc1ccc(C(=O)OCC(=O)Nc2ccc(N3CCOCC3)cc2)cc1,7,20%,-1%,-2.9%
O=C(N=NC(=O)c1ccc2c(O)n(C3CCCCC3)c(O)c2c1)c1cccnc1,11,7%,0%,0.0%
Cc1cc(C)c(C)c(S(=O)(=O)N2CCC(C(=O)NCc3ccco3)CC2)c1C,·,-1%,·,-0.9%
C=CCNS(=O)(=O)c1cc(S(=O)(=O)NCC=C)c(OC)cc1OC,-6,19%,2%,0.3%
COc1cccc(-n2c(=S)sc3c(=O)n(-c4ccccc4OC)c(=S)[nH]c32)c1,-10,13%,4%,-2.9%

# 2 of the compounds above, as labelled records.
SMILES: CC(=O)Nc1ccc(C(=O)OCC(=O)Nc2ccc(N3CCOCC3)cc2)cc1
- GLA inh pH 4.5: 7
- Rango release inh: 20%
- miR-21 FLuc: -1%
- Rango-impB inh: -2.9%
SMILES: O=C(N=NC(=O)c1ccc2c(O)n(C3CCCCC3)c(O)c2c1)c1cccnc1
- GLA inh pH 4.5: 11
- Rango release inh: 7%
- miR-21 FLuc: 0%
- Rango-impB inh: 0.0%
